Screening data: PubChem, ICCB-Longwood Screening Facility, Harvard Medical School
MenB inh: Mtb MenB enzyme inhibition; P9WNP5; MenB enzyme assay, absorbance read-out; some hits fall short of the stated cut; inhibition, %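 (about 12 µg/mL by stock and volumes)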; hit rate 0.43% among 100,000; AID 540299;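 active means mean of two replicates above 30%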;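 further: 0% = no compound and 100% = wells with inactive enzyme; the first replicate is given; strong numbers were not always called active; inactives centre near -10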
Target sequence (P9WNP5 whole entry, looked up): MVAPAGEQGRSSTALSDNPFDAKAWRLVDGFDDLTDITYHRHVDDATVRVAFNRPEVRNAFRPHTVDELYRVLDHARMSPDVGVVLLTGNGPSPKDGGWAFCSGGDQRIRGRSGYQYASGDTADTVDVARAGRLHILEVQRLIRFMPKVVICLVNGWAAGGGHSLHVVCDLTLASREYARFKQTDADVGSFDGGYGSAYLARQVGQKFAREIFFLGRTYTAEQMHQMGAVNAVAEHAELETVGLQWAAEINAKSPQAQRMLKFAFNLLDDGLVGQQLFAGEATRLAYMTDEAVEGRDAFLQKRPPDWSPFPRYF
PV pol inh: poliovirus RNA polymerase inhibition. P03300. hit rate 0.66% among 150,000. poliovirus polymerase elongation, fluorescence polarization; stronger effect = lower value. % elongation, % (compound at 16.7 µg/mL); in the data active means % elongation below about 90%; further: some results filed as inactive read as strong as hits
Target sequence (P03300 1749-2209 limits assumed): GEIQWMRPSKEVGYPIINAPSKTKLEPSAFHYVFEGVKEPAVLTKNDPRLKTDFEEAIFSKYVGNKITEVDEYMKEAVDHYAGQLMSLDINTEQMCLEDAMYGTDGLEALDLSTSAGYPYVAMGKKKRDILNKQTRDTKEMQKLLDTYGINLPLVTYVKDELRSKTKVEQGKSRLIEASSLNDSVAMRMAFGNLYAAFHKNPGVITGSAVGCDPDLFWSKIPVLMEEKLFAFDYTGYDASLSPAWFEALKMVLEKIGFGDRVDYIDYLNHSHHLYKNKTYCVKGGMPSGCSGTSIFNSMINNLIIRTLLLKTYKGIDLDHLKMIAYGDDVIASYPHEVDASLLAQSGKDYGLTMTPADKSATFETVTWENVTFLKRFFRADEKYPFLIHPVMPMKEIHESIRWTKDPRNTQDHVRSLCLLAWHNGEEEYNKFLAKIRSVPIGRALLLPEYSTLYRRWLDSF
Mtb MbtI inh: inhibitors of Mycobacterium tuberculosis siderophore enzyme MbtI; AID 493033; hit rate 0.89% among 100,000; purified MbtI enzyme, fluorescence intensity read-out; inhibition, %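 (about 17 µg/mL by stock and volumes)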;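 active means above 50% in both replicates, above 80% if mildly self-fluorescent; inactive means the rest, strongly fluorescent compounds included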;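 further: 0% = mean of negative and 100% = mean of positive controls; one replicate is shown; some compounds called inactive have numbers as strong as hits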
PV pol inh intensity: further read-out of PV pol inh, marked with its call; % elongation; measured here: total intensity read-out; formula for this scale not given here;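 total fluorescence in place of polarization; lower means less elongation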
* marks the source's active call; other numbers are inactive results; i = inactive; . = no result given; & = joins results of further samples.

SMILES | MenB inh | PV pol inh | PV pol inh intensity | Mtb MbtI inh
Cc1cc(N)c2ccccc2[n+]1CCCCCCCCCC[n+]1c(C)cc(N)c2ccccc21 | 2&2 | 97&97 | 98&87 | 168
CCC1Oc2ccc(C)cc2N(CC(=O)NC(C)CCc2ccccc2)C1=O (stereo unspecified) | -8 | 101 | 103 | 1
O=C(COc1ccc(Br)cc1C(=O)Nc1ccc(Cl)cc1)NC1CC1 | -4 | 99 | 102 | .
C=CC(C)(O)CC[C@]1(C)[C@H]2CC(=O)C=C(C)[C@]2(C)C[C@@H](O)[C@@H]1C (stereo partly specified) | -8 | 101 | 103 | -4
O=C(OCCN1C(=O)c2ccccc2C1=O)c1ccc(Cl)cc1 | -8 | 100 | 101 | 12
O=C(Cc1nncn1-c1ccccc1)c1ccc(O)cc1O | 2 | 44 | 209 | -1
CC1CCN(C(=O)CN(CCc2ccccc2)S(C)(=O)=O)CC1 | -40 | 106 | 103 | -8
COc1ccc(/C=C/C(=O)N2CCCC2)cc1OC | . | 104 | 108 | -3
CC(=O)NCCC(=O)Nc1ccc(-c2cn3ccsc3n2)cc1 | 11 | 99 | 105 | 28
CC/C(O)=c1\ccc2cccc3nc(CC)nc1c23 | -64 | 45 | 251 | .
CCCCc1nnc(SCC(=O)Nc2ccccc2)n1CC | -22 | 99 | 100 | 4
O=C(N=S1CCN(c2ncc(C(F)(F)F)cc2Cl)CC1)c1ccccc1 | -9 | 108 | 114 | -16
COc1ccc(C(=O)Nc2cccc(NC(C)=O)c2)c(OC)c1 | 3 | 100 | 102 | 6
O=C(O)Cc1ccc(NCc2ccc(Br)cc2)cc1 | 4 | 102 | 104 | 66*
Clc1ccc(Cn2cc(/C=N/n3cnnc3)c3ccccc32)c(Cl)c1 | -12 | 100 | 105 | -11
COC(=O)CC1=C(C(=O)OC)C2(C(=O)Nc3ccc(Br)cc32)C(C(=O)OC)=C(N)O1 (stereo unspecified) | -4 | 103 | 102 | 16
Cc1cc(C(=O)COC(=O)c2ccc(-n3cnnn3)cc2)c(C)n1-c1cccc(F)c1 | 3 | 102 | 106 | 4
COc1cc(C(=O)OCC(=O)Nc2ccc(C)cc2)cc(OC)c1OC | -21 | 103 | 104 | -26
Cn1cccc1C1CCCN1CC(=O)NC(=O)NCc1ccccc1 (stereo unspecified) | 4 | 105 | 110 | -7
Cc1cc(NC(=O)/C=C/c2ccc(F)cc2)no1 | -20 | 105 | 105 | 4
Cc1cc(C(C)(C)C)ccc1OCC(O)CNC1CCC(O)CC1 (stereo unspecified) | -34 | 97 | 103 | 7
CCOC(=O)c1c(C)nc2cc(C)ccn12 | -15 | 101 | 102 | 15
COC(=O)c1cc2cccc(OC)c2cc1OC | -17 | 99 | 101 | i
CC(=O)Nc1ccc(NC(=O)CSc2nccc(=O)[nH]2)cc1 | 9 | 100 | 100 | 19
CCOC(=O)c1oc2ccccc2c1CN1c2cccc3cccc(c23)S1(=O)=O | -11 | 102 | 103 | -6
COc1ccc(CCN(C)CC2=CCC3CC2C3(C)C)cc1OC (stereo unspecified) | -19 | 99 | 101 | -21
NC(CN1CCOCC1)c1ccccc1 (stereo unspecified) | -95 | 102 | 104 | 9
O=S(=O)(Nc1nccs1)c1ccccc1 | -9 | 115 | 197 | 74
CCC(=O)c1cc2ccccc2oc1=O | 11 | 105 | 99 | 11
O=S1(=O)CCCCN1c1ccc(S(=O)(=O)N2CCCCC2)cc1 | 13 | 101 | 100 | 6
O=C(CCn1cccc1)NCC1COc2ccccc2O1 (stereo unspecified) | -23 | 104 | 94 | 13
COc1ccccc1CC1(C)NC(=O)NC1=O (stereo unspecified) | 2 | 105 | 111 | -11
O=C(Cn1[nH]c(=O)c2ccccc2c1=O)NCC(c1ccco1)N1CCCC1 (stereo unspecified) | -11 | 105 | 101 | 20
O=C(NCCCN1CCN(c2cccc(Cl)c2)CC1)c1ccc(N2CCCS2(=O)=O)cc1 | -4 | 101 | 102 | -41
O=C(CSc1ncn[nH]1)Nc1cc(Cl)ccc1Cl | . | 104 | 105 | -16
CCC(C(=O)NCc1ccccc1)N(C(=O)Cn1nnc(-c2cccs2)n1)c1ccccc1OC (stereo unspecified) | -23 | 104 | 99 | -6
O=C(Oc1ccc(-c2nnco2)cc1)c1ccc2ccccc2c1 | -12 | 103 | 109 | -8
COc1ccc2oc(=O)c(C(=O)NCc3ccco3)cc2c1 | -27 | 99 | 101 | 25
Cc1cc(C)n(C(=O)C2CCCN2S(=O)(=O)c2ccc(Cl)cc2)n1 (stereo unspecified) | -5 | 105 | 105 | -5
CCOc1ccc(-c2nc(CSCC(=O)N3CCc4ccccc43)c(C)o2)cc1 | -16 | 100 | 101 | 2

Some of the entries so far, field by field.
> O=C(Cn1[nH]c(=O)c2ccccc2c1=O)NCC(c1ccco1)N1CCCC1 (stereo unspecified)
  MenB inh: -11
  PV pol inh: 105
  PV pol inh intensity: 101
  Mtb MbtI inh: 20

> O=C(NCCCN1CCN(c2cccc(Cl)c2)CC1)c1ccc(N2CCCS2(=O)=O)cc1
  MenB inh: -4
  PV pol inh: 101
  PV pol inh intensity: 102
  Mtb MbtI inh: -41

> O=C(CSc1ncn[nH]1)Nc1cc(Cl)ccc1Cl
  MenB inh: .
  PV pol inh: 104
  PV pol inh intensity: 105
  Mtb MbtI inh: -16

> CCC(C(=O)NCc1ccccc1)N(C(=O)Cn1nnc(-c2cccs2)n1)c1ccccc1OC (stereo unspecified)
  MenB inh: -23
  PV pol inh: 104
  PV pol inh intensity: 99
  Mtb MbtI inh: -6

(next part)
SMILES | MenB inh | PV pol inh | PV pol inh intensity | Mtb MbtI inh
Cc1nnc(SCC2=NN(c3nc4ccccc4s3)C(=O)C2)s1 | -49 | 102 | 102 | 30
CCc1c(C)sc(NC(=O)c2cc(-c3cccs3)on2)c1C#N | -4 | 101 | 102 | 85
CCc1ccc(NC(=O)n2ncc3c(C)cccc32)cc1 | -22 | 102 | 100 | 1
CC12CN3CC(C)(CN(C1)P3(=O)Oc1ccccc1)C2=O (stereo unspecified) | -122 | 103 | 104 | -24
CCN(CC)S(=O)(=O)c1ccc(N/N=C/C=C2/N(C)c3ccccc3C2(C)C)nc1 | -100 | 104 | 107 | -6
N#Cc1ccc(COC(=O)c2ccc3noc(-c4ccccc4)c3c2)cc1 | 4 | 108 | 111 | -9
NC(=S)CN1C(=O)c2ccccc2S1(=O)=O | -3 | 99 | 105 | 11
C=CCn1c(N)cc(=O)nc1SC(C)C(=O)Nc1cccc(Cl)c1 (stereo unspecified) | -13 | 100 | 102 | 0
CC(C)c1ccc(-c2nnc(N)s2)cc1 | -17 | 95 | 92 | -7
CCC(=O)Oc1oc(-c2ccccc2)nc1C=Nc1ccccc1C | 2 | 101 | 105 | 13

Whole records from above:
Record of `CC12CN3CC(C)(CN(C1)P3(=O)Oc1ccccc1)C2=O` (stereo unspecified) : MenB inh = -122; PV pol inh = 103; PV pol inh intensity = 104; Mtb MbtI inh = -24
Record of `Cc1nnc(SCC2=NN(c3nc4ccccc4s3)C(=O)C2)s1` : MenB inh = -49; PV pol inh = 102; PV pol inh intensity = 102; Mtb MbtI inh = 30

Remaining list, next part:
SMILES | MenB inh | PV pol inh | PV pol inh intensity | Mtb MbtI inh
CCN(Cc1nc2cc(OC)c(OC)cc2c(=O)[nH]1)C(=O)CC1CC2CCC1C2 (stereo unspecified) | -7 | 99 | 102 | 16
COc1ccc(-c2nnn(CC(=O)N(CC(=O)NCc3ccccc3)c3ccc4c(c3)OCCO4)n2)cc1OC | -78 | 104 | 103 | 13
C1=C[C@H]2c3ccccc3N[C@@H](c3cccc(OC4CSC4)c3)[C@H]2C1 | -22 | 99 | 115 | 15
CCCSc1ccc2nc(NC(=O)OC)[nH]c2c1 | 4&-12 | 99&97 | 101&101 | -8&-5
O=C(c1ccno1)N1CCN(Cc2ccccc2)CC1 | -22 | . | . | -8
O=C(OCc1cc(=O)oc2cc(O)ccc12)c1cnccn1 | -14 | 109 | 112 | 105
CCOc1cc2[nH]c(=O)n(CCCCC(=O)N3CCN(Cc4ccccc4)CC3)c(=O)c2cc1OCC | -28 | 102 | 98 | 8
CCOC(=O)C1=CN(c2ccc(OCC)cc2)C=C(C(=O)OCC)C1c1cccc(OC)c1 | -24 | 100 | 94 | 16
O=C(CSc1nnc(Cc2ccccc2)o1)N1CCNC1=O | -36 | 108 | 120 | 3
O=C(Cn1cnnn1)N(CCc1ccccc1)c1nc(-c2ccccc2)cs1 | -21 | 107 | 107 | -14
Nc1ccc(N=Cc2ccc3c(c2)OCCO3)cc1 | . | 102 | 97 | -11
c1cc2c(cc1CN1CCN(C3CCCCCC3)CC1)OCO2 | -1 | 94 | 96 | .
CCC(=O)c1ccc(OCC(=O)NCCOc2ccccc2)cc1 | -38 | 98 | 93 | -10
O=C(NCC1CCCCC1)c1n[nH]c(=O)c2ccccc12 | -3 | 101 | 101 | -20
COc1ccccc1NCC(=O)NN=C1CCN(Cc2ccccc2)CC1 | 3 | 102 | 98 | -11
C#CC(C)(C)NC(=O)c1snnc1C | -11 | 104 | 105 | -2
COc1ccc(-c2cn3c4ccccc4nc3n2CCO)cc1 | . | 103 | 108 | -104
COc1ccc(NC(=O)Cn2cnc3ccccc3c2=O)cc1 | 3 | 103 | 96 | .
COc1ccccc1Cn1cccc1C1=NC(C(C)C)CO1 (stereo unspecified) | -19 | . | . | -5
CN(C)S(=O)(=O)c1cccc(COC(=O)c2ccc3c(c2)OCO3)c1 | -11 | 105 | 107 | -6
NC(=O)C1CN(C(=O)CSc2nnc(-c3cccnc3)n2-c2ccccc2)c2ccccc2O1 (stereo unspecified) | -12 | 102 | 109 | -1
O=C(CCN1CCN(C2c3ccccc3-c3ccccc32)CC1)Nc1cccc(C(F)(F)F)c1 | -31 | 100 | 96 | -3
O=C(Cc1ccc(-c2ccccc2)cc1)NCc1ccco1 | -2 | 105 | 106 | -19
C/C(=C\C(=O)NC1CC(C)(C)NC(C)(C)C1)NC1CC(C)(C)NC(C)(C)C1 | -25 | 101 | 101 | -14
CC1(CCC(=O)O)NNC(=S)NN1 | -48 | 101 | 98 | 6
CC1CCCCN1CCNS(=O)(=O)c1ccc2c(c1)n(C)c(=O)c(=O)n2C (stereo unspecified) | 5 | 101 | 104 | 14
CCC(=O)Nc1cccc(NC(=O)CSc2nnnn2C(C)C)c1 | -32 | 101 | 105 | -4
CC(C)c1ccccc1C=NCC(=O)O | 8 | 99 | 102 | 1
O=C(O)CC1SC(=O)N(c2ccccc2)C1=O (stereo unspecified) | 4 | 102 | 103 | -22
Cc1[nH]c(C)c(S(=O)(=O)NC2CCCc3ccccc32)c1C(=O)N1CCCC1 (stereo unspecified) | -10 | 98 | 106 | -12
CN(C)C(=O)COC(=O)c1ccccc1Sc1ccccc1C#N | -22 | 102 | 107 | 7
O=C(c1cccs1)N1CCC(Cc2ccccc2)CC1 | -35 | 103 | 103 | -18
O=C(C(Cc1ccccc1)n1cccc1)N(CCc1ccccc1)Cc1ccccc1 (stereo unspecified) | -22 | 104 | 109 | -12
CC1Sc2ccc(S(=O)(=O)CCC(=O)N3CCCCC3)cc2NC1=O (stereo unspecified) | -14 | 105 | 101 | -11
C[C@]12C=CC(=O)C=C1CCC1C3C[C@@H](O)[C@](O)(C(=O)CO)[C@@]3(C)C[C@H](O)[C@@]12F (stereo partly specified) | 6 | 100 | 103 | -19
CNC(=O)C1=C(C)Nc2nc3ccccc3n2C1c1cccs1 (stereo unspecified) | -18 | 104 | 99 | .
Cc1cccc2cc(CN(C(=O)c3ccncc3)C3CCCC3)c3nnnn3c12 | -32 | 105 | 106 | -6
O=C(CSc1cccc2cccnc12)NC(c1ccccc1)c1ccccc1 | . | 103 | 103 | -20
Cc1cccn2c(=O)c3cc(C(=O)NC4CCCCCC4)sc3nc12 | -18 | 98 | 102 | -120
CCSc1nnc(NC(=O)C2CCCCC2C(=O)OCC(F)(F)C(F)F)s1 (stereo unspecified) | 2 | 100 | 100 | -4
COc1ccc(NC(=O)CCC(=O)Oc2ccc(C)cc2)cc1 | -6 | 112 | 108 | .
CC(C)c1ccc(NC(=O)NN2CCOCC2)cc1 | 6 | 102 | 105 | 13
Cn1cccc1C(=O)c1ccc(Cl)cc1 | . | 100 | 103 | 5
O=C(Nc1ccccc1)C1CCCN1C(=O)NCc1ccccc1 (stereo unspecified) | -36 | 101 | 101 | 5
O=C(OCc1cc(Cl)cc2c1OCOC2)c1ccc(CN2CCCC2=O)cc1 | -17 | . | . | -4
O=c1cc(CSc2nc3ccccc3c(=O)[nH]2)c2ccc(O)cc2o1 | -13 | 101 | 99 | 65
C/C(N)=C(/C#N)C(=O)CSc1nc2cc(S(=O)(=O)N3CCCCC3)ccc2o1 | 9 | 103 | 107 | -3
COc1cccc(C2CCN(C(=O)c3cccc4ccccc34)CC2)c1 | -23 | 111 | 110 | -12
O=c1/c(=C\c2ccc(N3CCCC3)c(F)c2)sc2nc3ccccc3n12 | 12 | 111 | 114 | 0
CC1(C)C(C(=O)Nc2ccccc2C#N)C1(C)C | 4 | 105 | 101 | .
O=C(CSc1ccccn1)Nc1ccccn1 | -18 | 107 | 108 | .
Cc1[nH]nc2c1CCCC2 | -3 | . | . | -6
COc1ccc(CC(=O)N2c3ccccc3CCc3ccccc32)cc1 | -22 | 100 | 98 | 16

2 compounds from above, limited to MenB inh.
| SMILES | MenB inh |
| --- | --- |
| CC1(C)C(C(=O)Nc2ccccc2C#N)C1(C)C | 4 |
| C/C(N)=C(/C#N)C(=O)CSc1nc2cc(S(=O)(=O)N3CCCCC3)ccc2o1 | 9 |

This is a random part of the collection (roughly 2% active in at least one column).
